# Source: PubChem
# Mtb hypoxia inh = PubChem AID 1159583; M. tuberculosis hypoxia-regulated fluorescent reporter, fluorescence; 300,000 tested, 0.1% active; fluorescence inhibition, % (concentration not given with the values);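 active = 35 to 45% if threefold the growth effect, above 45% if 1.5-fold the growth effect; inactive = the rest, general growth blockers included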;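 note: wells of about 50 µL received 100 nL stock; 0% = vehicle wells and 100% = reference inhibitor wells; whole bacteria with a GFP reporter of the hypoxia response; strong numbers were not always called active; many hits fall short of the cut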
# BJeLR viability = MLPCN primary cell-based screen for lethality selective to Ras in HRASV12 cells | BJeLR (HRASV12) viability, CellTiter-Glo ATP luminescence, 48 h; reference of the scale not given here | inhibition, % (no concentration beside the values) | 300,000 tested, 0.17% active | AID 1554, 2009;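 active = replicate mean above 50%; inconclusive = above 50% but judged a plate artefact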;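 note: 50 nL library stock added to about 25 µL; numbers are from one replicate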
# Sa RN4220 lethal = growth inhibition of S. aureus RN4220, primary screen, OD600. AID 1259311, 2017. 16 h. 330,000 tested, 0.33% active. inhibition, % (concentration not given with the values);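 active = z-score of -3 or lower and OD600 up to 0.18 on both plates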;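 note: plate controls were untreated cells for no effect and reference antibiotic for full effect; stock transfer was 100 nL into about 80 µL; one replicate is shown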
# Bead autofluor = flagged as autofluorescent in microsphere protease counterscreen; fluorescence intensity (test concentration not listed); 360,000 tested, 3.1% active; AID 624483; compound autofluorescence counterscreen, microsphere flow cytometry; active compounds read high;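 active = at least 3 SD above the mean of all compounds, about 16000 in these data; inconclusive = too few beads counted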;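 note: 100 nL of 1 mM stock went into each well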
# ugtP null kill = growth inhibition of ugtP-null S. aureus, primary screen, RN4220 ugtP deletion, OD600 | 16 h; some inactives read as strong as hits | growth inhibition, % (test concentration not listed) | 330,000 tested, 0.54% active | AID 1259309, 2017;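 active = z-score under -3 and OD600 up to 0.15 on both plates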;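 note: plate controls were untreated wells for no effect and antibiotic for full effect; wells of about 80 µL received 100 nL stock; the first replicate is given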
# PrP 5UTR inh = inhibition of PrP 5' UTR reporter expression; 340,000 tested, 0.35% active; inhibition, % (concentration not given with the values); AID 488862, 2010; cell-based PrP 5' UTR mRNA reporter, plate reader;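 active = every replicate at 50% or more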;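 note: 0 = median of the neutral control wells; tested in H4 reporter cells; numbers are from one replicate; inactives centre near -14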
# Mtb hypoxia inh growth = further read-out of Mtb hypoxia inh, marked with its call; growth inhibition, %; measured here: M. tuberculosis growth (absorbance);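 0% = vehicle and 100% = reference antibiotic; read after six days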
# Starred values were filed as active, the others as inactive; ? = inconclusive; . = not tested or not shown.
structure	Mtb hypoxia inh	Mtb hypoxia inh growth	BJeLR viability	Sa RN4220 lethal	Bead autofluor	ugtP null kill	PrP 5UTR inh
COc1ccc(C(=O)CC(SCC(NC(C)=O)C(=O)O)c2ccc(Cl)cc2)cc1OC (stereo not drawn)	18	5	5	30	3935	2	-12
Cc1cc(C)c(C(=O)CSc2nnc(C)c(=O)[nH]2)cc1C	-8	10	0	4.6	3391	-1	-9
COc1ccc(/C=N/NC(=O)c2ccn[nH]2)cc1COc1ccc(Cl)cc1Cl	.	.	1	.	6672	.	1
Cc1cccc(NC(=O)C2CCCN(S(=O)(=O)c3c(C)nn(C)c3C)C2)c1 (stereo not drawn)	.	.	7	1.3	6839	-4	-25
CCN(CC)S(=O)(=O)c1ccc(N/N=C(\C)c2ccncc2)nc1	.	.	-4	.	3056	.	-11
CC1(c2cccc([N+](=O)[O-])c2)CC(C)(C)N(C(=O)c2ccccc2)c2ccccc21 (stereo not drawn)	4	3	0	4.6	10295	14	-38
COc1cc(/C=C/C(=O)O)cc(S(=O)(=O)NCCCC(=O)O)c1OC	.	.	5	.	2196	.	-25
C=CCSc1nc2ccsc2c(=O)n1-c1cccnc1	14	6	-2	7.2	3508	5	-23
CC1=C(C(=O)NC(C)C)C2(CCC(C)CC2)OC1=O (stereo not drawn)	-4	3	-11	-2.6	6607	-6	-30
CN(CCc1ccccc1)C(=O)c1cccc(NC(=O)Cc2ccc([N+](=O)[O-])cc2)c1	-4	-1	.	-3.4	4119	-2	-18
COc1cccc(CNC(=O)CCC2CCCN(c3cc(C)nc(N4CCCC4)n3)C2)c1 (stereo not drawn)	0	12	2	0.4	4570	6	-12
Cc1cc(C(=O)N2CCN(c3ncccn3)CC2)c2cc(F)ccc2n1	20	8	-2	3.6	12878	3	-24
CCCCNC(=O)C(=O)NC(C)CCc1ccccc1 (stereo not drawn)	.	.	5	1.1	2391	1	-18
O=C(c1ccc(CNc2c(N3CCCC3)c(=O)c2=O)cc1)N1CCN(C2CCCCC2)CC1	13	30	-15	1.8	5822	10	-7
COc1ccc(C2N(c3ccc(Cl)cc3)N=C(C(C)=O)N(C)N2C(C)=O)cc1 (stereo not drawn)	6	5	-4	-8.4	4778	10	-26
O=C(O)c1ccc(Sc2nnnn2-c2ccccc2)c([N+](=O)[O-])c1	.	.	0	3.1	4570	6	-29
CCOC(=O)c1c(C)[nH]c(C(=O)/C(C#N)=C/c2ccc(OC(F)F)c(OC)c2)c1C	1	0	-16	1.9	2437	-2	-7
N#Cc1c(-c2ccccc2)nc(SCC(=O)Nc2nnc(C(F)(F)F)s2)[nH]c1=O	3	-2	0	1.1	4961	-3	-23
CCCCC(OC(=O)c1ccco1)C(=O)NCc1ccc(C)cc1 (stereo not drawn)	6	2	-5	1.4	2936	12	-13
CC1(C)c2[nH]c3ccccc3c2C[C@H]2C(=O)N(N)CC(=O)N21	-1	-3	14	5.3	3832	2	-18
CCCCn1c(N)c(N(CCC(C)C)C(=O)CSc2nc3ccccc3n2C)c(=O)[nH]c1=O	0	4	.	-0.5	3216	-2	2
C[C@]1(C(=O)NCCCNc2ncc(C(F)(F)F)cc2Cl)C=C[C@@H](Cc2ccccc2)N1C(=O)c1ccccc1	.	.	7	.	3770	.	-8
O=C(CSc1nc2c(sc3ccccc32)c(=O)n1CCCN1CCCC1)NCc1ccccc1	9	7	3	0.4	5510	0	-3
Cn1cccc1C(=O)NC(=O)COC(=O)CC12CC3CC(CC(Br)(C3)C1)C2	.	.	-2	3.5	5184	-15	-2

# Pulled by compound from the entries so far:
structure	Mtb hypoxia inh	Mtb hypoxia inh growth	BJeLR viability	Sa RN4220 lethal	Bead autofluor	ugtP null kill	PrP 5UTR inh
O=C(CSc1nc2c(sc3ccccc32)c(=O)n1CCCN1CCCC1)NCc1ccccc1	9	7	3	0.4	5510	0	-3
CCCCC(OC(=O)c1ccco1)C(=O)NCc1ccc(C)cc1 (stereo not drawn)	6	2	-5	1.4	2936	12	-13

# Next part:
structure	Mtb hypoxia inh	Mtb hypoxia inh growth	BJeLR viability	Sa RN4220 lethal	Bead autofluor	ugtP null kill	PrP 5UTR inh
O=C(CN1C(=O)CCSc2ccccc21)Nc1ccc2c(c1)OCCO2	4	6	-17	4.2	16584*	4	-3
COc1ccc([N+]([O-])=Cc2ccco2)cc1	6	4	.	-0.3	.	0	.
CCOc1ccc(N/C(SC)=C(/C#N)C(N)=O)cc1	5	7	-18	5.2	9994	1	.
CCOC(=O)C1CCCN(C(=O)COc2ccccc2O)C1 (stereo not drawn)	.	.	-2	0.5	3159	1	-32
CC(=O)Nc1nc2ccccc2n1CCN(C)C	.	.	4	1.5	3720	5	-29
O=C(Nc1ccc2c(c1)OCO2)C1CC(=O)N(c2ccc3c(c2)OCCO3)C1 (stereo not drawn)	3	11	9	-2.4	4301	3	-2
C=C1c2cccc(OC)c2O[C@H](C(=O)OCC)[C@@H]1CCCCCC	8	12	.	3.2	3743	70	-11
Cc1cnc(CN2CCCC(C(=O)c3ccc4c5c(cccc35)CC4)C2)[nH]1 (stereo not drawn)	-28	-2	3	-1.4	4593	-11	-7
COc1cccc(-n2c(Cc3cc(=O)[nH]c(=O)[nH]3)nnc2SC(C)C)c1	.	.	3	-1.5	5636	3	-14
COC(=O)C1=NN(c2ccccc2)C2(SC(=Cc3ccccc3)C(=O)N2c2ccccc2)S1 (stereo not drawn)	9	-1	.	1.5	.	2	.
CC(NC(=O)C1CCC1)c1ccc(Cl)cc1 (stereo not drawn)	.	.	-4	5.4	3339	10	-3
CN1CCN(CC(=O)NC23CC4CC(CC(C4)C2)C3)CC1	-6	-7	9	0.0	4834	-1	-22
Cc1ccc(Oc2nc3ccccc3n3c(C)nnc23)c(C)c1	.	.	-1	2.0	2468	2	-70
Cn1nnnc1SCc1nc2scc(-c3ccccc3)c2c(=O)[nH]1	2	5	-2	3.2	6378	-3	-31
O=C(NCc1ccc(F)cc1)c1cc2c(s1)CCCC2	9	22	-2	2.3	3902	-6	-12
CCOC(=O)N1CCN(C(=O)c2ccc(OC)c(OC)c2)CC1	3	4	6	0.8	4292	4	-11
COC(=O)c1sccc1NC(=O)Nc1ccc(OC)cc1OC	-10	7	0	0.8	4875	-2	-7
CCOc1ccc2ccccc2c1/C=N/NC(=O)c1cc(C)[nH]n1	.	.	-1	.	5936	.	4
Cc1onc(C(=O)N2C(C)CCCC2C)c1[N+](=O)[O-] (stereo not drawn)	2	6	4	5.4	2158	3	-30
COc1cc2c(cc1NC(=O)CCCCCN1C(=O)CCC1=O)oc1ccccc12	11	2	-2	16	24230*	0	-14
Nc1nnc(CSc2ccc(Cl)cc2)s1	13	6	-6	-12	3362	-3	-17
O=C(Cn1cc(S(=O)(=O)Cc2cccc(F)c2)c2ccccc21)N1CCOCC1	3	3	-3	3.9	?	6	-10
O=C(O)CSc1nc(-c2ccc(Cl)cc2)nc2c1oc1ccccc12	-2	1	-1	23	10244	34	-38
CC(C)c1ccc(CC(C)C2C3=C(CCCC3=O)OC3=C2C(=O)CCC3)cc1 (stereo not drawn)	.	.	-1	2.7	2770	30	5
O=C(O)CCC(=O)Nc1ccc(Br)cn1	.	.	.	-0.1	5899	-3	-11
COC(=O)c1cc(C(=O)OCC(=O)c2ccc[nH]2)cc([N+](=O)[O-])c1	7	-2	.	2.8	2952	4	-11
Cc1ccc(S(=O)(=O)N/N=C/c2cccn2-c2ccc(Cl)cc2)cc1	.	.	-3	.	3092	.	-14
O=C(NNC(=O)c1ccccc1[N+](=O)[O-])c1ccc(NC(=O)c2ccccc2)cc1	5	-9	-1	-3.8	6022	-1	-8
COCCNC(=S)N1CCN(Cc2cccc(OC)c2)CC1	15	9	7	5.2	4393	1	-25
Cc1ccc(NS(=O)(=O)c2ccc(-c3ccc(=O)[nH]n3)o2)cc1	-1	4	5	-2.3	5444	-1	-9
Cc1cc(-c2nnc(SCC(=O)Nc3ccccc3C(F)(F)F)n2N)n[nH]1	-1	0	4	1.3	4307	-2	10
Cc1ccc(C(=O)N/C(=C\c2sccc2C)C(=O)NCCCN2CCOCC2)cc1	-4	-5	-5	-0.9	3127	2	-13
CCN1CCCC(Sc2nc3c([nH]2)c(=S)n(C)c(=O)n3C)C1 (stereo not drawn)	-2	-2	4	2.4	3895	2	-27
COc1ccc(-c2c(N)nnc3c2[nH]c2ccccc23)cc1OC	.	.	-3	1.8	4395	5	-1
O=C1/C(=C/c2ccccc2)N=C(N2CCOCC2)N1c1cccc(Cl)c1	2	0	9	3.6	10267	0	-25
CC(=O)Nc1ccc(NC(=O)C2CC(=O)Nc3ncnn32)cc1 (stereo not drawn)	14	2	6	3.3	4796	6	-16
CCc1ccc(NC(=O)c2cccc(NC3=NC4CS(=O)(=O)CC4S3)c2)cc1 (stereo not drawn)	7	8	0	-10	6002	0	-16
Cc1ccc(S(=O)(=O)N2CCC(C)CC2)c([N+](=O)[O-])c1	18	0	-3	6.5	3507	-3	-21
COc1cc(OC)c(C2C(C(=O)N3CCOCC3)=C(C)NC3=C2C(=O)CC(C)(C)C3)cc1OC (stereo not drawn)	1	17	4	4.5	8576	-6	-24
CCOC(=O)c1sc2nc(C)nc(NCc3ccc(F)cc3)c2c1C	3	20	-15	-2.8	4575	-6	-2
CCOc1ncccc1C(=O)OCC(=O)Nc1cc(S(=O)(=O)N2CCOCC2)ccc1C	13	11	1	5.5	2006	5	-60
CC(=O)Nc1ccc(C(=O)OCc2ccc(Cl)cc2)cc1	2	4	0	-3.3	11385	-8	-7
CCC(=NNC(=O)C1CCCC1)c1ccc(Br)cc1	5	0	.	-0.1	.	3	.
CCOC(=O)C1CCN(c2c(NC3CCCc4ccccc43)c(=O)c2=O)CC1 (stereo not drawn)	6	3	5	0.6	5409	5	-6
O=C(CCc1ccc(S(=O)(=O)N2CCOCC2)cc1)Oc1ccccc1	3	-9	1	2.2	16054	1	-4
COC(=O)c1ccc(COc2ccc3c(C)c(C)c(=O)oc3c2C)o1	0	9	.	3.8	.	-1	-32
CCOCCCNc1ncnc2c1nc1n2CCCC1	3	-4	-3	1.2	3653	-5	-11
O=C(CCNC(=O)c1ccc([N+](=O)[O-])cc1)Nc1cccc(S(=O)(=O)N2CCCCCC2)c1	5	-4	.	2.7	2604	7	-13
COc1ccc(CCNC(=O)Nc2cccc([N+](=O)[O-])c2)cc1	-2	8	-2	-0.8	4637	4	-18
COc1ccc(-n2nc(C(=O)N3CCN(c4ccc(F)cc4)CC3)c3ccccc3c2=O)c(OC)c1	.	.	.	1.3	4887	4	-9
COC(=O)c1ccc(NC(=O)c2ccccc2NS(C)(=O)=O)cc1	4	10	0	5.9	3697	-1	-16
Cc1ccc(OCC(=O)c2c[nH]c3ccccc23)c([N+](=O)[O-])n1	9	7	5	14	4469	8	-11
O=C(Cc1cccc2ccccc12)N/N=C/c1ccc2cccc(O)c2n1	.	.	-5	.	4242	.	4
COc1ccc2[nH]c(C)c(CCNC(=S)Nc3cc(C)ccc3C)c2c1	-1	-1	2	5.7	6510	9	-2
COc1ccc(NS(=O)(=O)c2cc(NC(=O)Cn3cnc4c3c(=O)n(C)c(=O)n4C)ccc2C)cc1	10	14	19	-0.3	3771	12	1
O=S(=O)(Nc1nc2ccccc2s1)c1ccc(Cl)s1	10	10	5	26	10545	8	-11

# Additional compounds
structure	Mtb hypoxia inh	Mtb hypoxia inh growth	BJeLR viability	Sa RN4220 lethal	Bead autofluor	ugtP null kill	PrP 5UTR inh
CCOc1ccc(N(C(C)=O)c2nc(C)cc(C)c2C#N)cc1	.	.	-2	0.6	4800	-2	-23
Cc1cc(C)c(S(=O)(=O)N2C=CC(C(F)(F)F)=NCC2)c(C)c1	.	.	4	3.7	3111	2	-20
Cc1ccc(NC(=S)N(CCC(C)C)C(C)c2ccncc2)c(Cl)c1 (stereo not drawn)	-3	-10	4	-1.1	5171	1	-6
CC(C)Cn1c(-c2cc(Br)ccc2F)nc2c1c(=O)[nH]c(=O)n2CC(C)C	8	10	-11	-2.4	3810	-9	-16
